ID4 SMM: binders of human ID4 protein. P47928. small molecule microarray, Flag-ID4 binding, fluorescence F/B. calls only. 31,000 compounds, 1.2% hits;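 active = spot signal over background at p below 0.07 in all four prints; compounds were printed on slides so no solution concentration is given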;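 note: a binder raises fluorescence above local background on the spot; about 2 pmol printed per array spot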
Target sequence (P47928 whole entry, looked up): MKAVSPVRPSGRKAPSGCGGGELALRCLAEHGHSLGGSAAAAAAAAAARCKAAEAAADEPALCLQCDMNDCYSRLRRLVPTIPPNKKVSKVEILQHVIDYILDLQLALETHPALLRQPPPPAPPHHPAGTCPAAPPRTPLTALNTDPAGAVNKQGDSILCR
Calls only; i = inactive.

SMILES | ID4 SMM
C[C@@H]1CN([C@@H](C)CO)C(=O)c2cc(C3=CCCCC3)cnc2O[C@@H]1CN(C)Cc1cccnc1 | i
Nc1nc(-c2cccnc2)nn1C(=O)c1ccco1 | i
O=C(CSc1nnc(-c2ccc([N+](=O)[O-])cc2)n1-c1ccccc1)Nc1ccc(Cl)cc1 | i
COc1ccccc1NC(=O)COc1ccccc1C(=O)Nc1ccccc1 | i
C[C@H]1CN([C@@H](C)CO)C(=O)c2cccc(N(C)C)c2O[C@@H]1CN(C)C(=O)Nc1ccccc1 | i
C[C@@H]1CN([C@H](C)CO)C(=O)c2ccccc2-c2ccccc2CO[C@@H]1CN(C)C(=O)c1ccccc1 | i
C[C@@H]1CN([C@@H](C)CO)S(=O)(=O)c2ccc(-c3ccccc3)cc2O[C@H]1CN(C)C(=O)Nc1ccccc1F | i
Cc1cc(C)c(NC(=O)CSc2nnc(-c3ccc(Br)cc3)o2)c(C)c1 | i
CCn1c(SCC(=O)Nc2ccc(F)c(F)c2F)nnc1-c1ccccc1O | i
CN1CCN(S(=O)(=O)c2ccc(NC(=O)C3CC=CCC3C(=O)O)cc2)CC1 (stereo not drawn) | i
C[C@@H]1CN([C@H](C)CO)S(=O)(=O)c2ccc(C#Cc3ccccc3)cc2O[C@@H]1CN(C)CC1CC1 | i
Cc1ccc(S(=O)(=O)N(C)C[C@@H]2Oc3cc(Br)ccc3S(=O)(=O)N([C@@H](C)CO)C[C@H]2C)cc1 | i
C[C@H]1CN([C@@H](C)CO)S(=O)(=O)c2ccc(-c3cccc(C#N)c3)cc2O[C@@H]1CN(C)C(=O)c1ccncc1 | i
Cc1ccc([N+](=O)[O-])cc1S(=O)(=O)NCCc1c(C)[nH]c2ccccc12 | i
O=C(NCCN1CCOCC1)c1cccc(S(=O)(=O)N2CCCC2)c1 | i
Cc1ccc(NC(=O)COc2ccc(Br)cc2C)c([N+](=O)[O-])c1 | i
COC(=O)c1c(NC(=O)C2CC(=O)NN2Cc2ccccc2)sc2c1CCC(C)C2 (stereo not drawn) | i
CC(=O)O[C@H]1C[C@@]2(C)[C@@H](C[C@@H](O)C3[C@]2(C)CC[C@H]2[C@H](C)[C@H](O)CC[C@]32C)/C1=C(/CCC=C(C)C)C(=O)O (stereo partly drawn) | i
COc1ccc(CNC(=O)C[C@H]2C[C@H]3c4cc(N(C)C)ccc4O[C@H]3[C@H](CO)O2)cc1 | i
O=C(COc1cccc2ccccc12)Nc1cccc(C(=O)O)c1 | i
C[C@H](CO)N1C[C@H](C)[C@H](CN(C)C(=O)C2CC2)Oc2ncc(-c3ccccc3F)cc2C1=O | i
CC(=O)c1ccc(NC(=O)CSc2nnc3c4ccccc4n(C)c3n2)cc1 | i
COc1ccc(-c2cc(C(F)(F)F)nc(SCC(N)=O)n2)cc1OC | i
N#Cc1c(-c2ccccc2)nc(SCC(=O)N(c2ccccc2)c2ccccc2)[nH]c1=O | i
COC(=O)Cc1c(C)nc2nc(NCc3cccs3)[nH]n2c1=O | i
COc1ccc(-c2nnc(SCc3nc4ccccc4c(=O)[nH]3)n2C)cc1 | i
CC(C)NC(=O)N[C@@H]1C=C[C@H](CC(=O)NCCCN(C)C)O[C@H]1CO | i
COCC#Cc1cnc2c(c1)C(=O)N([C@@H](C)CO)C[C@@H](C)[C@H](CN(C)Cc1ccccc1)O2 | i
CC(C)c1cn(CC[C@@H]2CC[C@H](NC(=O)C3CCCCC3)[C@H](CO)O2)nn1 | i
COc1ccc(CC(=O)Nc2ccc(C(=O)Nc3ccccc3C(=O)O)cc2)cc1OC | i
COc1ccccc1CC(=O)Nc1ccc2c(c1)C(=O)NC2=O | i
CCC(=O)N[C@@H]1CC[C@@H](CC(=O)NCc2cc(F)cc(F)c2)O[C@@H]1CO | i
O=C(C[C@H]1C=C[C@H](NC(=O)C2CCC2)[C@@H](CO)O1)NC1CCCCC1 | i
COc1ccc(NC(=O)c2ccco2)cc1NC(=S)NC(=O)c1ccc(-c2cccc(Cl)c2)o1 | i
O=C(C[C@H]1C=C[C@@H](NC(=O)C2CC2)[C@H](CO)O1)NCc1ccncc1 | i
O=C(CSc1nnc(-c2cccnc2)o1)c1ccc(Oc2ccccc2)cc1 | i
C[C@H]1CN([C@@H](C)CO)C(=O)c2cc(C#CC3CC3)cnc2O[C@@H]1CN(C)C(=O)c1ccc(F)cc1 | i
CCOC(=O)c1c(NC(=O)C2COc3ccccc3O2)sc2c1CCCC2 (stereo not drawn) | i
O=C(COc1ccccc1[N+](=O)[O-])Nc1cccc2ncccc12 | i
COC(=O)c1cc(NC(=O)COc2c(C)cc(C)cc2Cl)cc(C(=O)OC)c1 | i
CSc1nnc(-c2ccc(C(F)(F)F)nc2C)o1 | i
O=C(Cc1ccccc1)N[C@H]1C=C[C@@H](CC(=O)N2CCOCC2)O[C@H]1CO | i
C[C@@H]1CN([C@@H](C)CO)S(=O)(=O)c2ccc(/C=C/c3ccccc3)cc2O[C@@H]1CN(C)C | i
C/C=C/c1ccc2c(c1)O[C@H](CN(C)S(C)(=O)=O)[C@@H](C)CN([C@@H](C)CO)S2(=O)=O | i
COc1ccc(N(CC(=O)Nc2ccc(Cl)c(Cl)c2)S(C)(=O)=O)cc1OC | i
C[C@@H]1CN([C@@H](C)CO)C(=O)c2cc(N(C)C)ccc2O[C@@H]1CN(C)C(=O)Nc1ccccc1 | i
COc1ccc(NC(=O)c2ccc(N(C)S(=O)(=O)c3ccc(OC)c(OC)c3)cc2)c(OC)c1 | i
CC(O)(C(=O)Nc1ccc(S(=O)(=O)c2ccccc2)cc1)C(F)(F)F (stereo not drawn) | i
COc1cc(C[C@H]2C(=O)OC[C@@H]2Cc2ccc(OC)c(OC)c2)ccc1O | i
COc1ccc(OC)c(S(=O)(=O)N(C)CC(=O)N2CCN(c3cccc(Cl)c3)CC2)c1 | i
CCCN(C)C[C@H]1Oc2cc(C#Cc3ccccc3)ccc2S(=O)(=O)N([C@@H](C)CO)C[C@H]1C | i
Cc1c(Cl)cccc1NC(=O)Cn1cnc2sc(C(=O)Nc3ccccc3)c(C)c2c1=O | i
CN(C)C(=O)C[C@H]1CC[C@H](NC(=O)C2CCC2)[C@H](CO)O1 | i
O=c1ccc2ccc(O)c(O)c2o1 | i
CC(=O)O[C@@H]1CC2C(C)(C)[C@H](O)C[C@H](O)[C@]2(C)C2CC[C@@]3(C)[C@H](c4ccoc4)OC(=O)[C@H]4O[C@]43[C@@]21C (stereo partly drawn) | i
COC(=O)c1cc(NC(=O)COc2ccc(I)cc2)cc(C(=O)OC)c1 | i
Cc1nc2nc[nH]n2c(=O)c1NS(=O)(=O)c1ccc(Br)cc1 | i
CC(C)c1cc(C(=O)N2CCOCC2)c(NC(=O)c2cc(-c3cccnc3)nc3ccc(Br)cc23)s1 | i
CNC[C@@H]1Oc2cc(C#Cc3cccc(F)c3)ccc2S(=O)(=O)N([C@H](C)CO)C[C@H]1C | i
CCCNC(=O)N[C@H]1CC[C@@H](CC(=O)NC2CCC2)O[C@@H]1CO | i

Gathered by group: the compounds so far containing a nitro group on carbon.
SMILES | ID4 SMM
O=C(CSc1nnc(-c2ccc([N+](=O)[O-])cc2)n1-c1ccccc1)Nc1ccc(Cl)cc1 | i
Cc1ccc([N+](=O)[O-])cc1S(=O)(=O)NCCc1c(C)[nH]c2ccccc12 | i
Cc1ccc(NC(=O)COc2ccc(Br)cc2C)c([N+](=O)[O-])c1 | i
O=C(COc1ccccc1[N+](=O)[O-])Nc1cccc2ncccc12 | i

(more compounds)
SMILES | ID4 SMM
COCCNS(=O)(=O)c1cc(F)ccc1OC | i
COc1ccc(NC(=O)CN(c2ccc(F)c(Cl)c2)S(C)(=O)=O)c(OC)c1 | i
O=C(CN1CCCCC1)Nc1sc2c(c1C(=O)Nc1ccc(Cl)cc1)CCC2 | i
C[C@H](CO)N1C[C@H](C)[C@H](CN(C)Cc2ccccn2)Oc2ncc(-c3ccc(C#N)cc3)cc2C1=O | i
c1nc(NCC2CCCO2)c2sc3nc(N4CCCCC4)c4c(c3c2n1)CCCC4 (stereo not drawn) | i
COC(=O)C[C@H]1C=C[C@H](NS(=O)(=O)c2ccccc2F)[C@@H](CO)O1 | i
O=C(CSc1ccc2ccccc2n1)c1ccc2c(c1)OCCO2 | i
COc1ccccc1CCNC(=O)c1cnn2c(C(F)F)cc(C)nc12 | i
CCc1cc(C)cc(OCC(O)Cn2cnc3ccccc32)c1 (stereo not drawn) | i
O=C(Nc1ccccc1)c1cc(S(=O)(=O)Nc2ccccn2)ccc1Br | i
CC(C)CC#Cc1cnc2c(c1)C(=O)N([C@@H](C)CO)C[C@@H](C)[C@@H](CN(C)Cc1cccc(F)c1)O2 | i
O=C(NCCCN1CCCC1=O)c1cccnc1 | i
FC(F)(F)c1ccc(C2=NCCc3sccc32)cc1 | i
CN1CCN(CCCn2c(-c3ccccc3)cn3c4ccccc4nc23)CC1 | i
Cc1ccc(NC(=O)COc2ccccc2)c(NC(=O)c2ccccc2C)c1 | i
COc1ccc(CCN(C)CCCC(C#N)(c2ccc(OC)c(OC)c2)C(C)C)cc1OC (stereo not drawn) | i
C[C@H](CO)N1C[C@H](C)[C@H](CN(C)C(=O)C2CCC2)Oc2ncc(C#Cc3cccc(F)c3)cc2C1=O | i
CSc1nnc(CNC(=O)OC(C)(C)C)n1C | i
C[C@H](CO)N1C[C@H](C)[C@@H](CN(C)CC2CCOCC2)Oc2ncc(C#Cc3ccncc3)cc2C1=O | i
COc1ccc(Cl)cc1NC(=O)Cc1coc2ccc3ccccc3c12 | i
CS(=O)(=O)N(CC(=O)Nc1c(F)cccc1F)c1cc(Cl)c(Cl)cc1Cl | i
CS(=O)(=O)N(CC(=O)O)c1cc(Cl)c(Cl)cc1Cl | i
CCC(=O)N(C)C[C@@H]1Oc2cc(C#CC(C)C)ccc2S(=O)(=O)N([C@H](C)CO)C[C@@H]1C | i
COc1ccc(Cl)cc1NC(=O)c1ccccc1N(Cc1ccccc1)S(C)(=O)=O | i
O=C(Nc1ccc2c(c1)[C@@H]1C[C@H](CC(=O)N3CCc4ccccc4C3)O[C@H](CO)[C@@H]1O2)c1ccc2c(c1)OCO2 | i
Cc1nc(C)c(Oc2ccc(Cl)cc2Cl)c(N2CCCCC2)n1 | i
CC(=O)c1ccc(NC(=O)CN(c2c(C)cccc2C)S(C)(=O)=O)cc1 | i
NCCNS(=O)(=O)c1cccc2c(Cl)cccc12 | i
CCCc1cn(CC[C@H]2CC[C@H](NC(=O)C3CCCC3)[C@H](CO)O2)nn1 | i
Cc1ccccc1CN(C)C[C@H]1OCc2cnnn2CCCC(=O)N([C@@H](C)CO)C[C@H]1C | i

Ordered by count of non-hydrogen atoms (falling): 4 of the compounds above
SMILES | ID4 SMM
C[C@H](CO)N1C[C@H](C)[C@@H](CN(C)CC2CCOCC2)Oc2ncc(C#Cc3ccncc3)cc2C1=O | i
Cc1ccc(NC(=O)COc2ccccc2)c(NC(=O)c2ccccc2C)c1 | i
COc1ccc(-c2cc(C(F)(F)F)nc(SCC(N)=O)n2)cc1OC | i
O=C(CSc1ccc2ccccc2n1)c1ccc2c(c1)OCCO2 | i

New compounds follow
SMILES | ID4 SMM
COc1ccccc1NC(=O)CCN1C(=O)C2C3CCC(C3)C2C1=O (stereo not drawn) | i
C[C@H]1CN([C@@H](C)CO)C(=O)c2cc(C#Cc3ccccc3F)cnc2O[C@@H]1CN(C)C(=O)C1CC1 | i
CC(C)C#Cc1cnc2c(c1)C(=O)N([C@H](C)CO)C[C@@H](C)[C@@H](CN(C)C(=O)CCN1CCCCC1)O2 | i
CCCn1c(=O)cc(N)n(-c2ccc(Cl)cc2)c1=O | i
COc1ccc(-n2c(SCC(=O)Nc3ccccc3C(F)(F)F)nnc2-c2ccccc2)cc1 | i
Cc1cc(C)c2oc(-c3ccc(C)c(NC(=O)COc4ccccc4C)c3)nc2c1 | i
Cc1ccc(CCC(=O)Nc2ccc(/C=C/c3ccccc3)cc2)o1 | i
COc1ccc(-c2cnc3c(c2)C(=O)N([C@H](C)CO)C[C@H](C)[C@@H](CN(C)C(=O)NC2CCCC2)O3)cc1 | i
CN1C(=O)c2ccc(NC(=O)CCn3cnc4ccccc4c3=O)cc2C1=O | i
Cc1cc(Oc2nc3cc(Cl)ccc3s2)c2cc(Cl)ccc2n1 | i
CCOC(=O)C(Sc1cc(C)nc(N)n1)C(C)=O (stereo not drawn) | i
C[C@@H]1CN([C@@H](C)CO)C(=O)c2cc(-c3cncnc3)cnc2O[C@H]1CN(C)C(=O)Cc1ccccn1 | i
Cc1cccc(NC(=O)CSc2nnc(-c3ccc(N)cc3)n2C)c1 | i
CN1CCN(C(=O)C[C@H]2CC[C@H](NS(=O)(=O)c3cccc(F)c3)[C@@H](CO)O2)CC1 | i
CCCN(C)C[C@@H]1Oc2ncc(-c3cccc(C(=O)N(C)C)c3)cc2C(=O)N([C@@H](C)CO)C[C@@H]1C | i

4 entries from above, set out differently:
> CN1C(=O)c2ccc(NC(=O)CCn3cnc4ccccc4c3=O)cc2C1=O
  ID4 SMM: i

> Cc1cc(Oc2nc3cc(Cl)ccc3s2)c2cc(Cl)ccc2n1
  ID4 SMM: i

> CCOC(=O)C(Sc1cc(C)nc(N)n1)C(C)=O (stereo not drawn)
  ID4 SMM: i

> C[C@@H]1CN([C@@H](C)CO)C(=O)c2cc(-c3cncnc3)cnc2O[C@H]1CN(C)C(=O)Cc1ccccn1
  ID4 SMM: i

(more compounds)
SMILES | ID4 SMM
CCCC(=O)CC(c1ccccc1)C1C(=O)c2ccccc2C1=O (stereo not drawn) | i
CN1CCN(C(=S)SCC(=O)Nc2nc(=O)c3ccccc3s2)CC1 | i
CCn1cnc2cc(NCc3nc4ccccc4n3C)ccc21 | i
COc1cc(NC(=O)CSc2nnc(-c3ccncc3)n2-c2ccc(C)cc2)cc(OC)c1 | i
O=C(C[C@@H]1CC[C@@H](NC(=O)CCN2CCCCC2)[C@@H](CO)O1)Nc1nccs1 | i
N#C/C(=C\c1ccc(O)c(O)c1)C(=O)NCc1ccccc1 | i
COc1ccc(-c2cc(C(F)(F)F)nc(SCC(=O)Nc3cc(F)ccc3C)n2)cc1OC | i
CCCc1cn(CC[C@@H]2CC[C@H](NC(=O)C3CCCCC3)[C@@H](CO)O2)nn1 | i

Screening results (PubChem)

Some of the compounds tested; the hit share may differ from the screen's.
